VDR inhibitor: blocks the human vitamin D receptor; P11473; Potency, µM, for the others: max response, negative = inhibition, most hits filed as inhibitors; 400,000 tested, 0.93% active; VDR-SRC2-3 peptide fluorescence polarization, 2 h; AID 504847; active means well fitted inhibition curve with a large enough effect; inconclusive means small, poorly fitted or top-dose-only effect, or another doubt; inactive means no such curve, though single readings can be large or run the other way; further: series mostly up to about 120 µM
Target sequence (P11473 whole entry, looked up): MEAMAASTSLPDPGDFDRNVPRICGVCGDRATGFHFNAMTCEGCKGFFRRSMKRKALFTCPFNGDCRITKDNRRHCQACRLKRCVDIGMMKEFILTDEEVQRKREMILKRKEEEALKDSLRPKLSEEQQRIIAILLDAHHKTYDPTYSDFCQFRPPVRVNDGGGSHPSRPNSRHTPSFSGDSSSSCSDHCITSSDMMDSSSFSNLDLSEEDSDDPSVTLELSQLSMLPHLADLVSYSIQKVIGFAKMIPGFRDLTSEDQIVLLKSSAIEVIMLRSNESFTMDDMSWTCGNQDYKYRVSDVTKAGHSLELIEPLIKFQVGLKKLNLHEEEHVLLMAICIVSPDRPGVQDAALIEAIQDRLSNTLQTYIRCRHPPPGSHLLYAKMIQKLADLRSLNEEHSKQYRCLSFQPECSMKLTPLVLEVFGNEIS
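Fluorescence polarization assay of small-molecule disruption of VDR binding to coregulator peptide SRC2-3. Compounds and controls pin-transferred, then read after 2 h incubation at ambient room temperature.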
* = called active by the depositor; u = inconclusive; [ ] = another dose, or the depositor's remark. On the % scale 0 is the no-effect control and ±100 the full control effect; potency means the concentration at half of the fitted maximal effect.

VDR inhibitor | molecule
0.9% | Cc1ccc(-n2c(SCc3ccccc3)nc3c([nH]c4ccccc43)c2=O)cc1
2.7% | Nn1c(C2CCC2)nc2cc(Cl)ccc2c1=O
-21.3% | CCC(C)NC(=O)CNC(=O)c1nn(-c2ccc(OC)c(Cl)c2)c(=O)c2ccccc12 (stereo unspecified)
4.9% | Cc1ccc(C)c(CN2C(=O)c3ccccc3S(=O)c3ccc(C(=O)N4CCOCC4)cc32)c1 (stereo unspecified)
-23.6% | CCCc1c(C)c2ccccc2[nH]c1=O
2.1% | COCCn1cnc2c1c(=O)n(CC(=O)NCC(F)(F)F)c(=O)n2Cc1ccccc1
-3.0% | CN(C(=O)c1cccc(NC(=O)C2CCN(C(=O)OC(C)(C)C)CC2)c1)C1CCCCC1
3.4% | CCCCOc1ccc(CNC(=O)Cc2ccc(NC(=O)N3CCSc4ncccc43)cc2)cc1
-3.4% | CCOc1ccc(N(CC(=O)NCc2ccccc2)S(=O)(=O)c2c(C)noc2C)cc1
12.2% | COc1ccc(-c2noc(CCC(=O)Nc3cccnc3)n2)cc1OC
-11.3% | CCn1c(Cc2ccccc2)nnc1SCC(=O)c1cccc([N+](=O)[O-])c1
-17.6% | Cc1ccc(C(C)NC(=O)c2c(C)noc2C)cc1C (stereo unspecified)
-5.0% | CC(=O)Oc1ccc(N2C(=O)C3C(C2=O)C(C(=O)c2ccc(Cl)cc2)N2CCCC32)cc1 (stereo unspecified)
-5.6% | CC(C)C(=O)Nc1cc2c3c(c1)CCN3C(=O)CC2
-9.8% | CCOC(=O)Cc1cn(C(=O)OC(C)(C)C)c2ccccc12
-13.8% | Cc1nn(Cc2ccc(Cl)cc2Cl)c(C)c1NC(=O)NC12CC3CC(CC(C3)C1)C2
-4.3% | Cc1c(Cl)c([N+](=O)[O-])nn1CCCC(=O)Nc1sc2c(c1C(N)=O)CCC(C)C2 (stereo unspecified)
-16.1% | COC(=O)C(C)(C(=O)OC)c1ccccc1[N+](=O)[O-]
-6.0% | CC(C)(C)OC(=O)C[C@H]1C/C=C\C[C@@H](CC(=O)N[C@H](CO)Cc2ccccc2)C(=O)NCCOC1=O
0.4% | O=S(=O)(c1ccc2ccccc2c1)N(CC(O)COCc1ccco1)c1ccccc1 (stereo unspecified)
1.0% | CCn1c(SCC(=O)N/N=C/C(C)=C\c2ccco2)nnc1-c1ccccc1
40.2%[activator] | C=CC#CC[N+]1(CC#Cc2ccccc2)CCOCC1
-7.3% | CCOc1ccc(NC(=O)CCCN2C(=S)NC(C)(C)CC2C)cc1 (stereo unspecified)
0.4% | Cc1cccc2cc(CN(Cc3ccco3)C(=O)Nc3cccc(C#N)c3)c(Cl)nc12
3.3% | COc1cccc(NC(=O)CCCOc2cc(=O)n(C)c3ccccc23)c1
18.1% | Cc1ccc(-n2nnnc2SCC(=O)N(CC(C)C)c2c(N)n(CC(C)C)c(=O)[nH]c2=O)cc1
-2.3% | COC1=C2C[C@H](C)C[C@H](OC)[C@H](O)[C@@H](C)/C=C(/C)[C@H](OC(N)=O)[C@@H](OC)/C=C\C=C(\C)C(=O)NC(=CC1=O)C2=O
-5.5% | COc1cc(CC(=O)N2CCN(S(=O)(=O)c3ccc(C)cc3)CC2)cc(OC)c1OC
-6.1% | CN(CC(=O)N1CC=C(c2ccccc2)CC1)S(=O)(=O)c1cnc[nH]1
-1.1% | O=C(Nc1nc(-c2ccccc2)cs1)C1CCCN(S(=O)(=O)c2cccc([N+](=O)[O-])c2)C1 (stereo unspecified)
7.0% | CN(C)S(=O)(=O)c1ccc(N2CCCC2)c(C(=O)Nc2ccccc2OC(F)F)c1
12.8% | CCOc1ccc(N2CC(C(=O)Nc3cccc(C(=O)NC4CC4)c3)CC2=O)cc1 (stereo unspecified)
0.0% | COc1ccc(NS(=O)(=O)c2ccc(N)c(C(=O)O)c2)cc1
7.1% | CN(C)S(=O)(=O)c1cccc(NC(=S)NC23CC4CC(CC(C4)C2)C3)c1
-26.8% | CN(C(=O)COC(=O)CNC(=O)C12CC3CC(CC(C3)C1)C2)c1ccccc1
5.1% | CC(C)(C)c1ccc(C(=O)c2cn[nH]c2-c2ccccc2O)cc1
-6.8% | CCc1noc(C)c1C(=O)N(C)CC(=O)Nc1ccccc1C(F)(F)F
-0.9% | CCn1c(CNC(=O)COc2ccc(C(C)C)cc2)nnc1SCC(=O)Nc1ccccc1
7.1% | CC(C(=O)OCn1nnc2ccccc2c1=O)N1C(=O)c2ccccc2C1=O (stereo unspecified)
u | CCc1ccccc1NC(=O)Cn1ccn(-c2ccc(OC)cc2)c(=O)c1=O
0.9% | COc1ccc(CNC(=O)CCC(=O)Nc2cccnc2)cc1
6.7% | Clc1cccc(NCc2cn3cccnc3n2)c1
12.1% | COc1cccc(/C(N)=N/OC(=O)Cc2ccccc2[N+](=O)[O-])c1
-5.0% | Cc1c(Cl)cccc1NC(=S)N1CCN(c2ccccn2)CC1
-9.1% | COCNc1nc(OCC#N)nc(N(C)C)n1
-4.3% | O=S(=O)(c1cccc(-c2csc(N/N=C/c3ccco3)n2)c1)N1CCOCC1
-10.2% | Cc1ccc(N2CCN(C(=O)CCc3c(C)nc4c(c3C)c(=O)n(C)c(=O)n4C)CC2)c(C)c1
-10.6% | Cc1cc(C)cc(NC(=S)NCCSc2ccc(Cl)cc2)c1
-13.3% | Cn1ncc2c(Nc3cccc(C(=O)O)c3)ncnc21
-16.8% | COc1cccc(N(CC(=O)NC(C)c2ccccc2)S(C)(=O)=O)c1 (stereo unspecified)

Next records follow.
VDR inhibitor | molecule
-7.5% | O=C(Nc1ccccc1)N1CCN(S(=O)(=O)c2ccccc2)CC1
9.1% | COc1ccc2c(c1)[C@H]1[C@H](CO2)[C@H](c2ccccc2)[C@]2(C)C(=O)Nc3cc(F)ccc3C(=O)N12
u | Cc1cc(SCC(=O)NC(=O)NCc2ccco2)nc2c(C)cccc12
6.7% | CC(Sc1nnc(C2CC2)n1C1CC1)C(=O)c1ccc(Br)cc1 (stereo unspecified)
8.8% | O=c1[nH]c(SCc2ccccc2)ncc1S(=O)(=O)c1ccccc1
-7.2% | CCCCCCCC(=O)NNC(=O)c1c(O)c2ccccc2n(CCC)c1=O
-10.5% | CCOC(=O)c1cc(-c2ccccc2)nn1Cc1cc(C)no1
1.9% | Cn1c(=O)c2c(nc(N3CCOCC3)n2CCc2ccccc2)n(C)c1=O
5.4% | CCN1CCN(c2ccc(NC(=O)c3ccco3)cc2Cl)CC1
1.0% | O=C(/C=C/c1ccc(Br)o1)OCc1ccccc1
15.5% | O=C(OCn1nnc2ccccc2c1=O)C1COc2ccccc2O1 (stereo unspecified)
-9.2% | CCOC(=O)c1ccc(NC(=S)NC(=O)COc2ccccc2)cc1
-8.8% | Fc1c(F)c(F)c(N/N=C/c2c[nH]c3ccccc23)c(F)c1F
-6.6% | Oc1ccc(-c2nccc(-c3ccc(Cl)cc3Cl)n2)cc1
1.8% | Cc1ccc(NC(=O)Nn2cnnc2)cc1
-4.7% | COc1ccc(C2N=C(N)N=C(N)N2c2ccccc2)cc1OC (stereo unspecified)
-6.4% | O=C1c2ccccc2C(=O)N1CCCON1C(=O)c2ccccc2C1=O
-0.5% | N#CC1=C(N)OC2=C(C(=O)CCC2)C1c1ccc(OC(=O)N2CCOCC2)cc1 (stereo unspecified)
8.6% | CCc1ccc(OCC(=O)Nc2cc(S(=O)(=O)CC)ccc2O)cc1
1.3% | O=C(NCc1ccco1)C1CCCN1C(=O)Nc1ccc(Br)cc1 (stereo unspecified)
u | CC(C)(C)c1ccc(/C=N/Nc2nncn2N)cc1
7.9% | CCOc1ccc(C(=O)Nn2cnnc2)cc1
-2.6% | O=C(NC(N1CCCCCC1)C(Cl)(Cl)Cl)c1ccccc1Cl (stereo unspecified)
1.7% | Cc1cccc(C(=O)NNS(=O)(=O)c2ccc(F)cc2)c1O
0.9% | O=C(CC1SC(N2CCCCC2)=NC1=O)Nc1cccc(C(=O)N2CCCC(C(F)(F)F)C2)c1 (stereo unspecified)
u | O=C1CC(c2ccccc2)Sc2nc(-c3ccc(F)cc3)nn21 (stereo unspecified)
-5.2% | COCCN(Cc1cc2ccc(C)cc2[nH]c1=O)S(=O)(=O)c1ccccc1
-1.9% | COc1cc2c(cc1NC(=S)Nc1cccc(C(F)(F)F)c1)oc1ccccc12
6.7% | Cc1cccc(C)c1NC(=O)CNC(=O)C1COc2ccccc2O1 (stereo unspecified)
-5.7% | COc1ccccc1-c1cc(C(F)(F)F)nc(N2CCN(c3ccc(F)cc3)CC2)n1
-14.0% | Cc1ccccc1OCC(=O)Nc1ccc2nc(SCC(=O)N3CCc4ccccc43)sc2c1
-9.6% | CCC1(C)Cc2ccccc2-c2nc3n(c(=O)c21)CCS3 (stereo unspecified)
10.2% | CC(C)N(Cc1ccccc1)S(=O)(=O)c1ccc(-c2cc(C(F)(F)F)on2)s1
3.2% | Cc1ccc(Cl)cc1N1CCN(C(=O)c2cn(C3CCCCC3)c(=O)c3c2c2ccccc2n3C)CC1
-9.4% | CCc1noc(C)c1C(=O)Nc1nc2ccc(F)cc2s1
-22.5% | CC(C)Oc1cccc(C(=O)NC(=S)Nc2cccnc2)c1
9.1% | CCN(CC)C(=O)c1cccc(NC(=O)c2cc(-c3ccccn3)nc3ccccc23)c1
12.1% | CN(Cc1cnn(-c2ccc(F)cc2)c1)Cc1nc(Cc2ccccc2)no1
-1.5% | COc1ccc(N2C(=O)[C@@H]3Cc4ccccc4CN3C2=O)cc1
9.3% | C[C@@H]1CC[C@H](O)/C=C/C(=O)O[C@H](C)CC[C@H](O)/C=C/C(=O)O1
17.7% | Cc1nc(SCC(=O)Nc2nccs2)c(C#N)c(C)c1C
79.4µM* | CC(C)C1N=C(c2ccc3c(c2)OCO3)CC(c2ccccc2O)N1 (stereo unspecified)
-15.5% | CC(C)(C)OC(=O)NCc1ccc(CNC(=O)c2[nH]cnc2C(=O)N[C@@H](Cc2ccccc2)C(=O)OC(C)(C)C)cc1
0.2% | Nc1nc2nccc(-c3ccco3)n2n1
u | CC(=O)OC1(C(C)=O)CCC2C3CC(C(F)(F)F)C4=CC(=O)CCC4(C)C3CCC21C (stereo unspecified)
0.5% | COc1ccc(CCNC(=O)NC23CC4CC(CC(C4)C2)C3)cc1OC
11.2% | CC(=O)c1cccc(N(C(=O)c2ccccn2)C(C(=O)NC2CCCCC2)c2cccs2)c1 (stereo unspecified)
-3.7% | CCNC(=S)N/N=C(\C)c1ccc2c(c1)OCCO2
-19.1% | CN1C[C@@H]2C(c3ccc(C(F)(F)F)cc3)C3(c4ccccc4)CC2(C3)[C@H]1c1ccccc1 (stereo partly specified)
4.2% | Cc1ccccc1-n1c(=S)[nH]c2nc3c(cc2c1=O)CCCC3

Some of these compounds in order of count of non-hydrogen atoms, highest first.
VDR inhibitor | molecule
-3.0% | CN(C(=O)c1cccc(NC(=O)C2CCN(C(=O)OC(C)(C)C)CC2)c1)C1CCCCC1
12.8% | CCOc1ccc(N2CC(C(=O)Nc3cccc(C(=O)NC4CC4)c3)CC2=O)cc1 (stereo unspecified)
-9.4% | CCc1noc(C)c1C(=O)Nc1nc2ccc(F)cc2s1

Next section
VDR inhibitor | molecule
5.3% | Cc1ccc(S(=O)(=O)N2CCCC(C(=O)NCCC3=CCCCC3)C2)cc1 (stereo unspecified)
-11.4% | COc1cccc(N(CC(=O)NCCSCc2ccc(Cl)cc2)S(C)(=O)=O)c1
-3.4% | CC(=O)Nc1ccc(OCCOc2ccc(NC(C)=O)cc2)cc1
-10.2% | CCc1ccc(OCC(=O)NC2CC(C)(C)NC(C)(C)C2)cc1
0.5% | CN(Cc1cccs1)C(=O)CSc1nc(N)cc(N)n1
7.4% | COc1ccccc1NC(=O)CCCC(=O)OC(C)C(=O)c1ccccc1 (stereo unspecified)
2.6% | CCOC(=O)N/N=C/c1ccccc1F
-9.3% | CCN1CCN(CCCN(Cc2ccco2)C(=S)Nc2ccc(C)c(Cl)c2)CC1
-1.2% | Clc1ccc(-n2nnc(-c3cccnc3Cl)n2)cc1Cl
-15.4% | CCOC(=O)C(=NCCCN(C)C)NNc1ccc(Br)cc1
-2.9% | O=C(C[n+]1ccc(-c2nnc3n2CCCCC3)cc1)c1ccc(Cl)cc1
-1.5% | COc1ccc(C(=O)c2ccsc2N)cc1
6.5% | Cc1ccc(CN2C(=O)C3(c4ccccc42)N(c2ccc(C)c(Cl)c2)C(=O)CS3(=O)=O)cc1 (stereo unspecified)
-3.8% | CCN(CC)S(=O)(=O)c1ccc(N2CC(C(=O)N3Cc4ccccc4CC3C(N)=O)CC2=O)cc1 (stereo unspecified)
1.1% | COC(=O)c1cc(NC(=O)c2ccc(-c3ccccc3)cc2)ccc1Cl
7.1% | O=C(NCCc1ccccc1)c1noc2c1CCc1ccccc1-2
16.2% | CCOc1ccc2oc(C(=O)NNC(=O)c3ccccc3O)c(C)c2c1
-2.4% | O=C(N/C=C/c1ccccc1)c1ccccc1
-14.5% | Cc1ccccc1C1C(=O)c2ccccc2C1=O
1.8% | COc1ccc(NC(=O)c2sc3nc4c(cc3c2N)CN(Cc2ccccc2)CC4)cc1OC
-8.7% | CCCCCC(=O)Nc1nc(C)c(-c2csc(Nc3ccccc3OC)n2)s1
0.7% | COc1cc(Cl)c(C)cc1NC(=O)c1ccccc1NC(=O)CN1CCN(c2ccccn2)CC1

4 entries from above, as a markdown table:
| Structure | VDR inhibitor |
| --- | --- |
| O=C(C[n+]1ccc(-c2nnc3n2CCCCC3)cc1)c1ccc(Cl)cc1 | -2.9% |
| CCOC(=O)N/N=C/c1ccccc1F | 2.6% |
| Cc1ccc(S(=O)(=O)N2CCCC(C(=O)NCCC3=CCCCC3)C2)cc1 (stereo unspecified) | 5.3% |
| Cc1ccc(CN2C(=O)C3(c4ccccc42)N(c2ccc(C)c(Cl)c2)C(=O)CS3(=O)=O)cc1 (stereo unspecified) | 6.5% |

Quoted from the entries so far (3 entries):
VDR inhibitor | molecule
6.5% | Cc1ccc(CN2C(=O)C3(c4ccccc42)N(c2ccc(C)c(Cl)c2)C(=O)CS3(=O)=O)cc1 (stereo unspecified)
-3.8% | CCN(CC)S(=O)(=O)c1ccc(N2CC(C(=O)N3Cc4ccccc4CC3C(N)=O)CC2=O)cc1 (stereo unspecified)
1.1% | COC(=O)c1cc(NC(=O)c2ccc(-c3ccccc3)cc2)ccc1Cl

From PubChem

A portion of the library; rates above refer to the full screens.
